NPYLR7 agonist = agonists of mosquito NPYLR7 receptor, primary screen, cell-based, Aedes aegypti, calcium fluorescence, mosquito biting behavior; HEK293T NPYLR7/Galpha15, GCaMP6s calcium fluorescence; activation, % at 10 µM; AID 1259423, 2018; hit rate 0.15% among 270,000; in the data active means activation above about 40%;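 further: 0% = vehicle and 100% = reference agonist at the receptor; some compounds past the cut are filed as inactive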
NPYLR7 agonist max-min = also measured in NPYLR7 agonist; calls as there; activation, %; measured here: Max-Min RFU normalised activation; some inactives read as strong as hits;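 span of the calcium signal over five minutes; 0% = vehicle and 100% = native peptide agonist; compound fluorescence can raise it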
Starred values were filed as active, the others as inactive; & = joins results of further samples. A portion of the library; rates above refer to the full screens.

SMILES	NPYLR7 agonist	NPYLR7 agonist max-min
COC(=O)C(NC(=O)c1c(O)cccc1O)c1cccc(C)c1 (stereo not drawn)	-1	-6
CC1(C)CC(=O)C2=C(C1)N1CCCCC1CC2=O (stereo not drawn)	27	23
Cc1cc(C(=O)N/N=C2\CCc3c(O)cccc32)c2ccccc2n1	-5	-3
COC(=O)C1=C(C)N(C)C(C)=C(C(=O)OC)C1c1cccc(OCc2ccccc2)c1	-10	-14
O=C(O)C1CCCCN1S(=O)(=O)c1ccc(Cl)s1 (stereo not drawn)	6&0	2&-1
Cc1coc2c(I)c3oc(=O)cc(C)c3cc12	39	38
COc1ccc(CC(=O)N(C)CC2CCCCO2)cc1 (stereo not drawn)	-1	-4
CNc1nc2cnc(Nc3cccc(NC(C)=O)c3)cc2n1-c1ccccc1	16	5
CC(C)(C)CC(=O)N1CCCCC1c1ncc(-c2cccc(F)c2)[nH]1 (stereo not drawn)	1	-1
Cc1nn(C(F)F)c(C)c1CC(=O)N1CCCCC1C(=O)O (stereo not drawn)	-5	-7
Cc1cnc(CNc2nc(CCN)nc3sc(C)c(C)c23)cn1	-1	-9
COc1ccc2c(c1)C(C)(Cc1cc(Cl)ccc1C(F)(F)F)C(=O)N2 (stereo not drawn)	2	5
Cc1ccc2cccc(OCCNS(=O)(=O)NCc3ccccc3)c2n1	-5	-6
COC(=O)c1cccc(CN2C(=O)CON=C2c2ncccc2C)c1	0	-2
c1cncc(CN(Cc2ccc3c(c2)CCO3)Cc2ccc3c(c2)OCO3)c1	-1	-8
COc1ccc(C2(C(=O)N[C@@H]3C[C@@H](CO)N(C)C3)CCCC2)cc1	5	3
Cc1nc2sccn2c(=O)c1NC(=O)Cc1ccccc1	13	6
CCCCNC(=O)N1CC(C(=O)N2CCSCC2)CCC1c1ccc(F)cc1 (stereo not drawn)	4	2
CC1Cc2cc(-c3cc(CNC(=O)c4ccccc4Cl)no3)ccc2O1 (stereo not drawn)	-1	-3
COc1ccccc1/C=C/c1nn2c(C(C)C)nnc2s1	-3	-3
CSc1ccccc1NC(=O)C1(C)CCN1C(=O)Cc1ccc(-c2ccccc2)cc1 (stereo not drawn)	-3	-3
CO[C@H]1CN(C(=O)C2(c3ccc(Cl)cc3)CCC2)CC[C@H]1N	6	3
COc1ccc(CCN2COc3ccc4c(c3C2)O/C(=C\c2ccncc2)C4=O)cc1	39	33
CCc1ccc(NC(=O)Cn2cc(OC)c(=O)cc2CSc2ncccn2)cc1	-7	-11
CNc1cc(C(=O)Nc2nc(COC)cs2)c2ccccc2n1	0	-2
CNc1nc(C)ccc1C(=O)OCC(=O)Nc1ccc(N2CCOCC2)cc1	-1	0
COc1ccc(S(=O)(=O)N(CCN(C)C)Cc2nccn2Cc2ccc(C(F)(F)F)cc2)cc1	-1	10
CCn1cnnc1CNC(=O)N1CCN(C)CC1c1ccccc1 (stereo not drawn)	13	8
CC(=O)NCCn1cnc(-c2ccccc2)c1-c1cccn1-c1cccnc1	13	0
Cc1cccc(NC2CCN(CCCOCC(F)(F)F)CC2)n1	3	1
Nc1cccc(-c2cc3c(Oc4cccc(O)c4)ncnc3[nH]2)c1	-6	-13
Fc1ccc(OCc2noc(-c3cccs3)n2)c(Br)c1	4	4
CCOc1ncccc1C(=O)NCCn1ncc2c(=O)n(Cc3ccc(C)cc3)cnc21	-7	-10
CCOCCn1c(=NC(=O)c2ccnn2CC)sc2cc(OC)c(OC)cc21	8	9
CC(C)n1ccnc1CN1CCC(c2[nH]ncc2-c2cccc(F)c2)CC1	2	3
COc1ccc(C(=O)N2CCOCC2)cc1NC(=O)C1CC2CCC1C2 (stereo not drawn)	5	3

The closing four compounds of the part above come first, to join the parts.
SMILES	NPYLR7 agonist	NPYLR7 agonist max-min
CCOc1ncccc1C(=O)NCCn1ncc2c(=O)n(Cc3ccc(C)cc3)cnc21	-7	-10
CCOCCn1c(=NC(=O)c2ccnn2CC)sc2cc(OC)c(OC)cc21	8	9
CC(C)n1ccnc1CN1CCC(c2[nH]ncc2-c2cccc(F)c2)CC1	2	3
COc1ccc(C(=O)N2CCOCC2)cc1NC(=O)C1CC2CCC1C2 (stereo not drawn)	5	3
COc1ccc(C2NCCS2)cc1 (stereo not drawn)	4	3
COc1ccc(-c2nc(CNC(=O)c3c(C)noc3-c3ccccc3Cl)c(C)o2)cc1	5	9
CCOC1CCCN(C(=O)NC(CN2CCc3ccccc3C2)C(C)(C)C)C1 (stereo not drawn)	-2	-2
CC1Oc2ccc(C#N)cc2N(Cc2ccc3ccccc3c2)C1=O (stereo not drawn)	9	6
CC(C)C(NC(=O)c1ccc(Br)cc1)C(=O)NC1CCCC1 (stereo not drawn)	0	-3
CCCCc1ccc(-c2ccc(-n3cncc3C(=O)NCCCOCC(CC)CCCC)cc2)cc1 (stereo not drawn)	-3	11
CCN(C)C1=C(c2c(C)[nH]n(-c3ccccc3)c2=O)C(=O)N(c2ccccc2F)C1=O	-5	-3
CCN(Cc1cccc(NC(=O)c2ccc(F)c(F)c2)c1)C(=O)OC(C)(C)C	4	4
O=C(O)CCc1nnc(SCc2ncc(-c3ccc(F)cc3)o2)[nH]c1=O	18	14
CN(CC(=O)NC1CCCCCC1)C1c2cc(Cl)cc(Cl)c2CC1O (stereo not drawn)	1	5
CC(C)Cn1cncc1CNC(=O)c1ccon1	1	-1
O=C(c1c(F)c(F)c(F)c(F)c1F)N1CCN(c2nc3nccc(-c4cccnc4)n3n2)CC1	5	3
Cc1ncsc1CCNC(=O)C1CC2(CCNCC2)CN1 (stereo not drawn)	17	4
CCOC(=O)c1[nH]c2ccc(OC)cc2c1NC(=S)N1CCN(C(=O)c2ccco2)CC1	-8	-13
O=S(=O)(Oc1ccc2oc3ccccc3c2c1)c1ccccc1F	-5	-5
COc1ccc2oc(=O)c(C(=O)Nc3c(F)cccc3F)cc2c1	3	13
N#Cc1ccccc1CN(Cc1ccccc1)Cc1cccn1Cc1ccccc1F	18	24
COc1ccc(C(CC(=O)NCc2ccc(F)cc2)c2cn(C)c3ccccc23)cc1OC (stereo not drawn)	-2	6
COc1ccc(CNC(=O)Cn2nc3c(c2NC(=O)CC2CCCCC2)CSC3)cc1	-7	-5
CC(C)C(=O)Nc1c2c(nc3ccccc13)N(C)CC2	-3	-5
O=C1NC2(CCN(C(=O)C3C[C@H]3c3ccccc3)CC2)Nc2cccc(Cl)c21 (stereo partly drawn)	2	6
O=C(Cn1cnc2sc3c(c2c1=O)CCC3)c1ccccc1Cl	-3	-2
CNc1ncc(CN(C)C(=O)CCc2cc(C)cc(C)c2)cn1	13	10
CC1CC(C)CN(C(C)C(=O)NCc2ccccc2Cl)C1 (stereo not drawn)	11	8

Profiles from above. Order of screens: NPYLR7 agonist	NPYLR7 agonist max-min
N#Cc1ccccc1CN(Cc1ccccc1)Cc1cccn1Cc1ccccc1F is listed as 18	24
O=C1NC2(CCN(C(=O)C3C[C@H]3c3ccccc3)CC2)Nc2cccc(Cl)c21 (stereo partly drawn) is listed as 2	6
CCOC(=O)c1[nH]c2ccc(OC)cc2c1NC(=S)N1CCN(C(=O)c2ccco2)CC1 is listed as -8	-13

Next entries follow:
SMILES	NPYLR7 agonist	NPYLR7 agonist max-min
Cc1cc(N(C)C)nc(NCCNC(=O)C(C)C)n1	-1	-1
CCCn1cc(SCC(=O)N2CCc3ccccc32)c2ccccc21	-2	-3
O=C(NCCSC1Sc2ccccc2NC1=O)c1ccccc1F (stereo not drawn)	-12	-19
O=C(Cn1nc(-c2ccc(F)cc2)c2ccccc2c1=O)N1CCOCC1	5	4
CCC(C)N(CC(=O)N(CCc1ccc(OC)c(OC)c1)Cc1ccco1)C(=O)Nc1ccc(Cl)cc1 (stereo not drawn)	-4	0
CCCNc1nccnc1-c1cc(C)c(O)c(C)c1	-2	-6
COCCN(Cc1cccc(OC)c1OC)CC(O)COCc1ccccc1 (stereo not drawn)	-4	3
CC(c1cccc(C(F)(F)F)c1)N(Cc1nnnn1C1CC1)C1CC1 (stereo not drawn)	-2	-3
CCCCn1ccnc1C(O)C(F)(F)F (stereo not drawn)	0	-1
CCOc1ccc(C(=O)NCCc2cc3ccc(C)c(C)c3[nH]c2=O)cc1	2	-2
CCNC(=O)CSc1nnc(-c2ccc(C)cc2)o1	-3	0
N#Cc1ccccc1Sc1ccc(C(N)=O)cc1	8	6
CC(C)C(=O)Nc1cccnc1-c1cccc(C(C)N2CCCC2)c1 (stereo not drawn)	6	4
O=c1oc2c(Cl)cc(NS(=O)(=O)c3ccc(F)cc3)cc2s1	2	0
O=S1(=O)C=CC(Nc2ccccc2)C1 (stereo not drawn)	17	20
CCn1c(SCC(=O)c2c(N)n(C3CC3)c(=O)[nH]c2=O)nnc1-c1ccco1	6	6
CC(=O)Nc1c(Br)cc(C2CCCCC2C)cc1Br (stereo not drawn)	13	10
Cc1c(CN(C)C(=O)CCN2CCCCO2)[nH]c2ccccc12	4	6
CCCc1nc2ccc(NC(=O)C3CCOCC3)cn2n1	1	-9
COC(=O)CCc1c(C)nn(-c2ccc(C(=O)NC3CCN(Cc4ccccc4)C3)cc2)c1C (stereo not drawn)	0	-5
COC1CN(C(=O)C2CCC2)CCC(=O)N(C)c2ccccc21 (stereo not drawn)	5	20
c1ccc(-c2ccc3ncccc3c2)c(CN2CCOCC2)c1	-2	-2
Cc1cc(C)[n+]2ncsc2n1	2	-10
CC(=O)NCCn1cnc(-c2ccccc2)c1-c1oc2ccccc2c1C	2	0

Arranged by molecular weight (rising): some entries from above
SMILES	NPYLR7 agonist	NPYLR7 agonist max-min
Cc1cc(N(C)C)nc(NCCNC(=O)C(C)C)n1	-1	-1
CCCc1nc2ccc(NC(=O)C3CCOCC3)cn2n1	1	-9
O=C(O)C1CCCCN1S(=O)(=O)c1ccc(Cl)s1 (stereo not drawn)	6&0	2&-1
CO[C@H]1CN(C(=O)C2(c3ccc(Cl)cc3)CCC2)CC[C@H]1N	6	3
Cc1cnc(CNc2nc(CCN)nc3sc(C)c(C)c23)cn1	-1	-9
Cc1cccc(NC2CCN(CCCOCC(F)(F)F)CC2)n1	3	1
O=C(Cn1nc(-c2ccc(F)cc2)c2ccccc2c1=O)N1CCOCC1	5	4

Going on with the list:
SMILES	NPYLR7 agonist	NPYLR7 agonist max-min
CCOC(=O)N1CCN(C(=O)CSc2nc(=O)[nH]c3c2CCC3)CC1	-3	-8
CCc1nc2ccc(C(=O)N(CC)CCN(C)C)cn2c1N(CC)C(=O)CCC1CCCC1	-4	2
O=C(O)C(=C/C=C/Br)C(=O)O	0	-1
CN(CCc1ccncc1)c1cc(Cl)nc(N)n1	0	-1
CC(=O)c1c(C)[nH]c(C(=O)C(C)Sc2nnc(NC3CC3)s2)c1C (stereo not drawn)	9	7
Cc1ccc2c(c1)c(Cn1ccnc1-c1cccs1)nn2C	18	13
COC(=O)c1ccc(CN2CCC(CCC(=O)Nc3cccc(OC)c3)CC2)cc1	16	6
CCOC(=O)c1nn(CCC(C)C)c2c1CN(C(=O)c1nn(C)c(=O)c3ccccc13)CC2	20	4
CCC(=O)C1=C(c2ccc(OC)cc2)N(C(=O)CC)n2c(Cc3ccc(OC)cc3)nnc2S1	14	11
CC(CCc1ccco1)NC(=O)c1cccc2ccnn12 (stereo not drawn)	5	6
CC(C)(C)C(=O)NCc1cccnc1N1CCc2ccccc2C1	3	2
O=C(NCCCNC(=O)[C@H]1CCCN1C(=O)c1cccc([N+](=O)[O-])c1)c1ccc(F)cc1	19	26
Cc1ccc2oc(-c3ccc(NC(=O)c4cccc(I)c4)cc3)nc2c1	-8	-12
COc1ccc([C@H]2[C@@H](C(=O)NCCCN(C)c3ccccc3)c3ccccc3C(=O)N2Cc2ccccc2)cc1	-8	-14
CCOC(=O)N1CCN(Cc2ccc3c(c2)CN(C(=O)c2ccc(C#CC(C)(C)O)o2)CCO3)CC1	4	0
O=C(CSCC(=O)c1ccccc1)NCC1CCCCO1 (stereo not drawn)	5	5
Cc1cc(C)c(S(=O)(=O)n2cccn2)cc1C	-2	41
Brc1cccc(-c2nc(NCc3ccco3)c3ccccc3n2)c1	22	27
CCc1nc(C)c(C(=O)N2Cc3cnn(Cc4ccc(F)cc4)c3C2)o1	4	-8
CC1(C)c2sc(=O)[nH]c2SC2C3CCC(C3)C21 (stereo not drawn)	4	8
Cc1ccccc1OC1CN(C(=O)c2cnc3sccn3c2=O)C1	2	1
COCCN(CC(=O)N(CCc1c[nH]c2ccccc12)Cc1ccc(C(F)(F)F)cc1)C(=O)C1CC1	-1	-11
CCCOc1ccc(C=O)c(O)c1	1	0
COC(=O)N1CCCCC1c1cc(C(=O)Nc2cccc3c2CCCC3)no1 (stereo not drawn)	6	3
O=C(NCc1ccc(Cl)cc1)c1cc(-c2ccc(F)cc2)nc2ccccc12	-16	-22
COc1ccccc1CNC(=O)C1(C)CCN1C(=O)Cc1ccccc1Cl (stereo not drawn)	1	-1
Cc1nc2ccccc2nc1N1CCN(S(=O)(=O)c2ccc(Cl)c([N+](=O)[O-])c2)CC1	-10	-3

In a second layout: 4 of the compounds above
Values run as follows: NPYLR7 agonist, NPYLR7 agonist max-min
- CC1(C)c2sc(=O)[nH]c2SC2C3CCC(C3)C21 (stereo not drawn)
  4, 8
- Cc1ccccc1OC1CN(C(=O)c2cnc3sccn3c2=O)C1
  2, 1
- COCCN(CC(=O)N(CCc1c[nH]c2ccccc12)Cc1ccc(C(F)(F)F)cc1)C(=O)C1CC1
  -1, -11
- CCCOc1ccc(C=O)c(O)c1
  1, 0

Screening results as filed in PubChem BioAssay.
